RE007 growth inh: less growth of the S. pombe RE007 Vpr strain. S. pombe RE007 Vpr strain, BacTiter-Glo ATP luminescence, 24 h; control for the full effect not named in the record. Potency, µM (top dose mostly 92.2 µM), without a hit: at the top dose activity change, negative = less growth. 0.21% of 360,000 active. AID 651644; active = well fitted falling curve with a large enough effect; inconclusive = small, poorly fitted or top-dose-only effect; inactive = no such curve, though single readings can be large or run the other way;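 further: on the % scale 0 is the no-effect control and ±100 the full control effect; nearly all actives have a fitted effect of over 50% in size; the assay follows cell death caused by Vpr and the record does not say whether a fall means rescue or toxicity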
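Fission yeast RE007 carrying one integrated HIV-1 vpr copy, seeded at OD 0.01 in PMG+AL medium with 23 nL pinned compound. Grown 24 h at 30 degrees; viability read by BacTiter-Glo luminescence after 5 min.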
NS1 function inh: inhibitors of influenza NS1 protein function. S. cerevisiae slowed by influenza A NS1, growth recovery by OD600. Potency, µM (highest dose often 46.1 µM), for inactives: at the highest dose activity, positive = more growth. 0.4% of 270,000 active. AID 2326; further: actives are rising curves; nearly all actives have a fitted effect of over 50% in size
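In this qHTS, NS1 from influenza A is expressed in budding yeast, where it slows growth. Cells are switched from glucose to 2% galactose medium (pH 6.0, -URA), treated with compound, and growth recovery is read at OD600.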
StopGo reporter: FMDV 2A StopGo reporter, luciferase signal; human cells with a luciferase reporter of 2A StopGo recoding; control for the full effect not named in the record; Potency, µM (titrated, usually from 57.9 µM), for inactives: top-dose signal change, negative = less light; 1.2% of 410,000 active; active = well fitted falling curve with a large enough effect; inconclusive = small, poorly fitted or top-dose-only effect; inactive = no such curve, though single readings can be large or run the other way; tested in HEK293T cells; further: on the % scale 0 is the no-effect control and ±100 the full control effect; nearly all actives have a fitted effect of over 45% in size; luciferase light after 4 h
Cruzain inh noDet: cruzain (T. cruzi) inhibition without detergent | P25779 | purified cruzain, Z-FR-AMC fluorescence, no detergent | Potency, µM, for the others: max response, negative = inhibition, hits mostly inhibitors | 2.3% of 200,000 active; active means well fitted curve in the direction sought with a large enough effect; inconclusive means small, poorly fitted or top-dose-only effect, or another doubt; inactive means no such curve, though single readings can be large; an effect the other way counts as inactive or inconclusive;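 further: plate controls were enzyme without inhibitor for no effect and buffer without enzyme for full effect; nearly all actives have a fitted effect of over 40% in size; top concentration of the series not given in the record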
Target sequence (P25779 123-467 limits assumed): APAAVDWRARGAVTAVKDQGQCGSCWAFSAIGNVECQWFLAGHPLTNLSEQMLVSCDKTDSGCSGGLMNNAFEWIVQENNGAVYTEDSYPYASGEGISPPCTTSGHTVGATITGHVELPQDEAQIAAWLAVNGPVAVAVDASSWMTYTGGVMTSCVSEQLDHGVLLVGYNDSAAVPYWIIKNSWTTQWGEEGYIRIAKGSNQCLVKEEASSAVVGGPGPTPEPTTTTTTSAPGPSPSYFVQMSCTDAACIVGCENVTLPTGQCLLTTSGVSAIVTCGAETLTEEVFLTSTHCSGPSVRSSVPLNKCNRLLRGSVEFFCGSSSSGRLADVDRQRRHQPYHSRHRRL
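Purified cruzain at 1.5 nM, pre-incubated 15 min with compound at room temperature in 100 mM sodium acetate pH 5.5, 5 mM DTT, 0.00005% Triton X-100. Reaction started with 2 uM Z-FR-AMC; AMC fluorescence increase over 60 s gives rate.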
SARS PLpro yeast: blocks SARS-CoV papain-like protease in a yeast assay. S. cerevisiae expressing SARS-CoV PLpro, growth rescue; control for the full effect not named in the record. Potency, µM (series often up to 32.9 µM), for inactives: at the highest dose activity, positive = growth rescue. 0.19% of 330,000 active. AID 485353; further: 0% is about no effect; nearly all actives have a fitted effect of over 55% in size; growth read by luminescence after 48 h
Cruzain Triton: cruzain (T. cruzi) inhibition with detergent | P25779 | purified cruzain, Z-FR-AMC fluorescence, 0.01% Triton | Potency, µM, for inactives: max response, negative = inhibition, actives largely listed as inhibitors | 0.43% of 200,000 active; active means well fitted curve in the direction sought with a large enough effect; inconclusive means small, poorly fitted or top-dose-only effect, or another doubt; inactive means no such curve, though single readings can be large; an effect the other way counts as inactive or inconclusive;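 further: plate controls were neutral wells for no effect and buffer without enzyme for full effect; nearly all actives have a fitted effect of over 40% in size; top concentration of the series not given in the record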
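Compounds were screened in titration against cruzain (1.5 nM) with 0.01% Triton X-100 to counter colloidal aggregation. Activity was the AMC fluorescence increase over 60 s after adding 2 uM Z-FR-AMC at pH 5.5.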
MARV entry inh: Marburg virus entry inhibition | Marburg virus pseudotyped entry inhibition, cell reporter; control for the full effect not named in the record; about a third of the inactives were read at about 46 µM | Potency, µM (highest dose often 37.8 µM), inactives show at the top dose activity change, negative = inhibition, usual class: inhibitors | 1.8% of 300,000 active | AID 540276; active = well fitted inhibition curve with a large enough effect; inconclusive = small, poorly fitted or top-dose-only effect, or effect the other way; inactive = flat fitted curve, though single readings scatter; tested in HEK293 cells; about a fifth of its hits are not listed in these tables; further: on the % scale 0 is the no-effect control and ±100 the full control effect; luciferase read-out
Lassa entry inh: Lassa virus entry inhibition; Lassa virus pseudotype entry inhibition, cell reporter; control for the full effect not named in the record; Potency, µM (titrated, usually from 37.9 µM), for the others: top-dose activity change, negative = inhibition, usual class: inhibitors; 1.2% of 300,000 active; AID 540256; active means well fitted inhibition curve with a large enough effect; inconclusive means small, poorly fitted or top-dose-only effect, or effect the other way; inactive means flat fitted curve, though single readings scatter; tested in HEK293 cells; further: on the % scale 0 is the no-effect control and ±100 the full control effect; nearly all actives have a fitted effect of over 50% in size; luciferase read-out
* = called active by the depositor; u = inconclusive; x = not tested or not shown; & = joins results of further samples; [ ] = remark or other dose. Unless noted, the call rests on the fitted dose curve; in most records, active means well fitted rising curve with a large enough effect; inconclusive means small, poorly fitted or top-dose-only effect; inactive means no such curve, though single readings can be large or run the other way. Potency means the concentration at half of the fitted maximal effect.

SMILES	RE007 growth inh	NS1 function inh	StopGo reporter	Cruzain inh noDet	SARS PLpro yeast	Cruzain Triton	MARV entry inh	Lassa entry inh
CC(=O)c1ccc2noc(-c3ccc(Cl)cc3)c2c1	3%	x	-21%	x	-2%	x	-14%[46.1 µM]	4%[46.1 µM]
CCOC(=O)C1Cc2ccccc2CN1 (stereo not drawn)	6%	2%	x	2%	-4%	4.3%	11%	17%
CCCCN(CC)C(=O)CCNS(=O)(=O)c1ccc2c(c1)c(=O)n(C)c(=O)n2C	x	x	-22%	-2%	x	-0.8%	-4%[46.1 µM]	12%[46.1 µM]
CCCCN1C(=O)NC(=O)C2(Cc3c(nc4c(C)cccn4c3=O)N3CCc4ccccc4C32)C1=O (stereo not drawn)	8%	-59%	u	16%	0%	-6.6%	-14%	-15%
COc1ccc(CCNC(=O)C(=O)N2CCCCC2)cc1OC	3%	7%	-6%	-8%	-6%	-1.4%	4%	0%
O=C(NCCc1ccccc1)c1cc(Sc2ccc(F)cc2F)nc2ccccc12	x	x	-17%	2%	x	0.6%	x	-18%[46.1 µM]
COc1ccc(NC(=O)COC(=O)/C=C/C(=O)OCC(=O)Nc2ccc(OC)c(Cl)c2)cc1Cl	x	0%	u	25µM*	3%	-20%	u	10%
Fc1ccc(-c2cc(C(F)(F)F)nc(NCc3cccs3)n2)cc1	-7%	0%	u	0%	8%	-8.7%	-22%	3%
S=C(Nc1ccc(Cl)c(Cl)c1)NN1CCOCC1	5%	0%	1%	2%	-18%	-2.4%	-13%	-10%
O=[N+]([O-])c1cc(C(F)(F)F)cc([N+](=O)[O-])c1NCCCNc1ccc([N+](=O)[O-])c2cccnc12	-7%	28%	-25%	-61%	3%	-7.8%	u	-1%
Cc1ccc(-c2nc(P(=O)(c3ccccc3)c3ccccc3)c(N3CCOCC3)o2)cc1	14%	-5%	-26%	u	2%	u	10µM*	u
CCCn1c(NCc2ccco2)nc2c1c(=O)n(C)c(=O)n2C	-13%	3%	0%	-1%	-5%	-3.6%	-19%	-11%
Cc1oc2ncn(C)c(=O)c2c1C(=O)NCCCN1CCCCC1C (stereo not drawn)	x	x	2%	4%	x	0.1%	x	29%[46.1 µM]
N/C(Cn1cncn1)=N\NC(=O)C(=O)Nc1ccc(Cl)cc1Cl	3%	4%	-15%	x	0%	x	-16%[46.1 µM]	-16%
COc1ccc2[nH]c(C(=O)NCCc3ccccc3)cc2c1	-4%	-12%	33%[activator]	x	u	x	u	-18%
COc1cccc(NC(=O)c2c(C)nn(-c3ccccc3)c2Cl)c1	3%	-34%	23%	x	-4%	x	x	x
CCCCn1nc(NC(=O)c2cccs2)c2cc3cc(OC)ccc3nc21	-9%	-110%	-17%	5%	-21%	-5.5%	u	-18%
Cc1ccccc1-n1ncc2c1CC(C)(C)CC2NC(=O)c1ccncc1 (stereo not drawn)	-13%	-5%	-19%	x	6%	x	0%	-9%
CCOc1ccc(Nc2nc(N(C)c3ccccc3)nc(N)c2[N+](=O)[O-])cc1	4%	3%	-15%	x	0%	x	-6%	-5%
Cc1noc(C)c1S(=O)(=O)N(CC(=O)NCCc1ccccc1)c1ccc(C(C)C)cc1	10%	0%	2%&7%	-12%	1%	-1.3%	7%&7%[46.1 µM]	u

Exported as labelled records: 2 of the compounds above
Cc1ccc(-c2nc(P(=O)(c3ccccc3)c3ccccc3)c(N3CCOCC3)o2)cc1
  RE007 growth inh: 14%
  NS1 function inh: -5%
  StopGo reporter: -26%
  Cruzain inh noDet: u
  SARS PLpro yeast: 2%
  Cruzain Triton: u
  MARV entry inh: 10µM*
  Lassa entry inh: u
CCCn1c(NCc2ccco2)nc2c1c(=O)n(C)c(=O)n2C
  RE007 growth inh: -13%
  NS1 function inh: 3%
  StopGo reporter: 0%
  Cruzain inh noDet: -1%
  SARS PLpro yeast: -5%
  Cruzain Triton: -3.6%
  MARV entry inh: -19%
  Lassa entry inh: -11%

Next section:
SMILES	RE007 growth inh	NS1 function inh	StopGo reporter	Cruzain inh noDet	SARS PLpro yeast	Cruzain Triton	MARV entry inh	Lassa entry inh
COc1ccccc1CCC(=O)OCC(=O)Nc1cccc(S(=O)(=O)N2CCCCC2)c1	4%	x	-13%	x	-2%	x	-4%	18%
CC(=O)c1c(C)oc(C)c1CSCc1ccc(C(=O)O)o1	-5%	12%	15%	-4%	0%	4.8%	u	-11%
Cc1c(C)[n+](=O)c(C)c(C)n1[O-]	1%	x	-11%	x	x	x	3%[46.1 µM]	4%[46.1 µM]
CCOc1nc(Nc2ccc(OC)c(Cl)c2)nc(OCC)n1	6%	2%	-24%	1%	-4%	0.2%	u	u
Cc1cccc(NC(=O)CCc2c(C)nn(-c3ccc(N4CCCCC4)nn3)c2C)c1	-3%	-19%	0%	x	-5%	x	x	x
CCN(CC)C(=O)COc1ccc2oc(-c3ccco3)cc(=O)c2c1	16%	-3%	25%	x	-2%	x	6%	2%
Cc1ccc(C(=O)N/C(=C\c2cccs2)C(=O)NCCCn2ccnc2)cc1	6%	-6%	98%[activator]	0%	13%	-3.7%	-13%	-2%
COc1ccc(NC(=O)CC2Nc3cc(C)c(C)cc3NC2=O)c([N+](=O)[O-])c1 (stereo not drawn)	-2%	5%	20%	x	-2%	x	x	x
O=C(NCc1ccccn1)C1COc2ccccc2O1 (stereo not drawn)	0%	-10%	-7%	2%	1%	2.3%	32%[46.1 µM]	13%
CC(C)(C)n1nc2c(c1NC(=O)c1c(F)cccc1F)CS(=O)(=O)C2	-9%	4%	10%	x	2%	x	x	x
CCN(CC)CC(=O)c1c[nH]c2ccc(C)cc12	2%	1%	-18%	-16%	14%	0.6%	-20%	11%
CCN(CC(=O)NCc1cccs1)C(=O)c1ccc(S(=O)(=O)Nc2ccccc2OC)cc1	14%	x	-9%	x	-1%	x	u	-6%
Cc1c(C(=O)NCC2CCCO2)oc2ccc(Br)cc12 (stereo not drawn)	-11%	x	22%	x	-9%	x	29%	-17%
Cc1cc(C)cc(-n2c(SCC(=O)N3CCCCC3)nc3c([nH]c4ccccc43)c2=O)c1	x	x	-23%	7%	x	1.1%	x	22%[46.1 µM]
Cc1ccccc1Nc1nc(N)nc(COC(=O)[C@@H](NC(=O)c2ccccc2Cl)C(C)C)n1	-12%	x	u	x	2%	x	u	u
Cc1ccc(-c2cc3ncc(C#N)c(N)n3n2)cc1	3%	x	26%	x	0%	x	26%[46.1 µM]	1%
COc1c(C)cc(S(=O)(=O)NCCc2c(C)[nH]c3ccccc23)c(C)c1C	x	x	67%[activator]	0%	x	-14%	-12%[46.1 µM]	u
COc1cccc(CNC(=O)C(=O)NCCc2ccc(OC)c(OC)c2)c1	-17%	10%	-16%	16%	1%	-1.9%	-1%	-19%
Cc1ccccc1OCCC(=O)NNC(=O)COc1cccc(F)c1	-15%	x	4%	x	1%	x	-1%	1%
Cc1ccccc1OCC(O)Cn1c(NCc2ccco2)nc2c1c(=O)[nH]c(=O)n2C (stereo not drawn)	2%	5%	x	4%	-11%	2.3%	u	7%
O=[N+]([O-])c1c(C(Cl)Cl)nn(-c2ccccc2)c1N1CCCC1	14%	-47%	x	1%	-23%	0.1%	-8%	-17%
O=C(c1ccc2c(Cl)c3c(nc2c1)CCCC3)N1CCN(c2cccc(Cl)c2)CC1	x	x	u	29%	x	2.7%	u	6%[46.1 µM]
O=C(NCCN1CCOCC1)c1c(O)nc2sccn2c1=O	7%	x	-7%	x	-4%	x	0%[46.1 µM]	1%
COc1cccc2c1OCC(CN1CCN(Cc3ccccc3F)C(CCO)C1)=C2 (stereo not drawn)	-6%	-6%	-27%	x	2%	x	x	x
O=C(CN1CCN(S(=O)(=O)c2ccc(F)c(F)c2)CC1)Nc1ccccc1C(=O)NC1CC1	6%	x	-27%	x	-3%	x	-19%	-26%
COCCC(=O)N1CCC(Oc2ccc(C(=O)NCCc3cnn(C)c3)cc2)CC1	10%	17%	-1%	x	-1%	x	2%[46.1 µM]	-14%[46.1 µM]
N#Cc1cc2c(nc1SCC(=O)Nc1sc3c(c1C#N)CCC3)CCCCCC2	3%	7%	-6%	u	15%	-0.9%	u	u
Cn1c(SCC(=O)NCc2ccco2)nnc1-c1c[nH]c2ccccc12	-13%	10%	0%	3%	-9%	0.5%	x	x
COc1ccc(C2CC(=O)n3c(nc4ccccc43)S2)cc1OC (stereo not drawn)	11%	-4%	-29%	1%	1%	-4.8%	12%	1%
CCCCCCCCOC1OC(CO)C(O)C(O)C1NC(C)=O (stereo not drawn)	-5%	17%	-20%	10%	-9%	9.8%	6%	-24%
COC(=O)c1[nH]c2ccc(Cl)cc2c1NC(=O)c1ccccc1[N+](=O)[O-]	10%	13%	24%	-22%	-5%	1.3%	x	x
C[C@@H](C(=O)NCc1ccccc1)[C@H]1C[C@]1(C)[C@H](NC(=O)OCc1ccccc1)c1ccccc1	-6%	17%	-21%	0%&-4%	4%	-3.4%&4.5%	u	u
COc1ccc(C2(c3ccc(OC)cc3)NC(=O)N(CC(=O)Nc3ccc(N4CCOCC4)cc3)C2=O)cc1	4%	x	-14%	x	4%	x	-27%	7%
Cc1ccc(S(=O)(=O)C(CNS(=O)(=O)c2ccc(F)c(C)c2)c2cccs2)cc1 (stereo not drawn)	x	x	44%[activator]	1%	x	-4.2%	x	u
CS(=O)(=O)c1ccc2nc(NC(=O)CN3C(=O)NC4(CCCC4)C3=O)sc2c1	0%	9%	-14%	x	1%	x	-7%	-5%
O=C(NC(=S)N1CCOCC1)c1ccccc1Cl	-1%	u	-3%	x	11%	x	3%[46.1 µM]	-6%[46.1 µM]
N=c1c(C(=O)NCC2CCCO2)cc2c(=O)n3ccccc3nc2n1Cc1ccccc1Cl (stereo not drawn)	-5%	-3%	-23%	x	1%	x	11µM*	u
CCOC(=O)c1cn(CC(=O)Nc2ccc3c(c2)OCCO3)nn1	-11%	-2%	-17%	-4%	3%	0.8%	5%	0%
O=C(Cc1ccccc1F)Nc1nc(-c2cccnc2)cs1	3%	14%	-5%	x	0%	x	3%	-20%

Source: PubChem BioAssay

An unsorted share of the library; overall some 4.6% were active at least once.
